# Assay outcomes as filed in PubChem.
# aDG glyco act: alpha-DG glycosylation activation; activation, % at 10 µM; AID 624168; Pro5-aDG cells, alpha-DG glycosylation AlphaScreen (IIH6); 0% Pro5, 100% B10-LARGE cell signal; actives 0.22% (n = 360,000);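 active = activation of at least 8% versus controls, or a plate z-score of at least 8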;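 also: Pro5 are CHO cells carrying HIG-tagged alpha-DG that lacks glycosylation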
# NR2E3 ag-1: activates human NR2E3 receptor; inhibition of corepressor binding, % at 3.98 µM; CHO-S Gal4-NCOR/VP16-NR2E3 two-hybrid, luciferase; Q9Y5X4; actives 0.35% (n = 360,000); AID 602229;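 active = inhibition above the mean of all tested compounds plus 3 SD, cut at about 70% in these data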;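 also: 0% = DMSO with NR2E3 transfected cells and 100% = cells lacking NR2E3 construct; higher means lower luciferase signal from less NR2E3 corepressor binding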
# NR2E3 ag-2: NR2E3 (human) agonism. AID 2300. Q9Y5X4. inhibition of corepressor binding, % at 4.78 µM. GST-NR2E3/biotin-RetCOR TR-FRET, 1536-well. actives 0.12% (n = 320,000);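 active = percent inhibition above the cutoff of mean plus 3 SD of all tested compounds, set per screening campaign, cut at about 20% in these data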;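 also: 0% = DMSO wells and 100% = biotin wells as full block of FRET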
#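 Assay system: NR2E3–RetCOR corepressor complex. Quantity: 1.35 nM GST-NR2E3. Buffer or medium: pH 7.5 Tris-based buffer. Reagent: biotinylated RetCOR corepressor at 7 nM final. Schedule: 5 h at 4 °C. Detection: TR-FRET, emission read at 617 and 671 nm. Replicates: one well per compound, singlicate testing.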
# hiPSC survival: enhancers of human iPSC single-cell survival | hiPSC single-cell survival, ATPlite luminescence; 100% = ROCK inhibitor wells, 0% = DMSO | survival enhancement, % at 20 µM | actives 0.044% (n = 360,000); in the data active = survival enhancement above about 18%;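 also: cells exposed to compounds for 16 hours before the ATP read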
# Numbers without * were called inactive; x = no result given; & = joins results of further samples. An excerpt; count on the stated rates, not on these rows.
Molecule,aDG glyco act,NR2E3 ag-1,NR2E3 ag-2,hiPSC survival
Cc1cc(NC(=O)CCS(=O)(=O)c2nc(-c3ccccc3)cc(C(F)(F)F)n2)no1,0.2,3.6,-0.7,-5.7
CCOc1ccccc1C1NC(=O)c2ccccc2N1 (stereo unspecified),0.3,2.5,x,0.5
N#Cc1c(-c2cccc(Br)c2)cc(-c2ccco2)[nH]c1=O,-0.1,-14.6,5.1,-0.5
Cc1nc2ccc(S(=O)(=O)NCC(=O)NCCN3CCCCCC3)cc2s1,-0.1,-8.6,4.0,3.4
O=C(O)c1cc(NS(=O)(=O)c2cccc3ccccc23)ccc1O,0.3,10.0,3.1,-3.5
O=C(O)/C=C\C(=O)O,0.1,3.7,5.2,-1.5
Cc1nc(-c2ccccc2)c(-c2ccccc2)[nH]1,0.1,-12.2,0.2,-0.7
COCCCOc1ccnc(CS(=O)c2nc3ccccc3[nH]2)c1C (stereo unspecified),0.1,-15.2,4.8&-0.4,-1.1
Cc1cccc(N2CCN(C(=O)c3cc4c(=O)n(C)c5ccccc5c4n3C)CC2C)c1 (stereo unspecified),-0.4,-11.8,3.6,0.0
CN1[C@@H]2CCC[C@H]1CC(NC(=O)c1nn(C)c3ccccc13)C2 (stereo partly specified),1.7,-15.9,1.6,1.9

# Results in NR2E3 ag-1, for 3 of the compounds above:
canonical_smiles | NR2E3 ag-1
O=C(O)c1cc(NS(=O)(=O)c2cccc3ccccc23)ccc1O | 10.0
O=C(O)/C=C\C(=O)O | 3.7
Cc1nc(-c2ccccc2)c(-c2ccccc2)[nH]1 | -12.2

# Given field by field: part of the list above
Cc1nc2ccc(S(=O)(=O)NCC(=O)NCCN3CCCCCC3)cc2s1
  aDG glyco act = -0.1
  NR2E3 ag-1 = -8.6
  NR2E3 ag-2 = 4.0
  hiPSC survival = 3.4
O=C(O)c1cc(NS(=O)(=O)c2cccc3ccccc23)ccc1O
  aDG glyco act = 0.3
  NR2E3 ag-1 = 10.0
  NR2E3 ag-2 = 3.1
  hiPSC survival = -3.5
CCOc1ccccc1C1NC(=O)c2ccccc2N1 (stereo unspecified)
  aDG glyco act = 0.3
  NR2E3 ag-1 = 2.5
  NR2E3 ag-2 = x
  hiPSC survival = 0.5
Cc1cc(NC(=O)CCS(=O)(=O)c2nc(-c3ccccc3)cc(C(F)(F)F)n2)no1
  aDG glyco act = 0.2
  NR2E3 ag-1 = 3.6
  NR2E3 ag-2 = -0.7
  hiPSC survival = -5.7
